# Compound activity: PubChem, National Center for Advancing Translational Sciences (NCATS)
# Menin MLL FP FL – menin-MLL binding inhibition, fluorescein peptide; Fluorescence polarization, fluorescein-MLL peptide displacement from menin; FP activity change, % at 61.4 µM; 290,000 tested, under 10 active; AID 1766; inconclusive = falling polarisation curve, or a change in total fluorescence; inactive = total fluorescence flat and polarisation flat or rising; no compound was filed as active; the % refers to the polarisation; negative = inhibition;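 also: % of control where 0% means no effect; inhibitors lower the polarisation; unlabelled MLL peptide was the positive control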
# PINK1 expr mod – modulators of PINK1 expression. PINK1 immunofluorescence, high-content cytometry, 24 h. Potency, µM (titrated, usually from 76.6 µM), inactives show at the top dose activation (PINK1 increase), actives largely listed as activators. 410,000 tested, 0.2% active. AID 624263; active = well fitted activation curve with a large enough effect; inconclusive = small, poorly fitted or top-dose-only effect; inactive = flat fitted curve, though single readings scatter; cell line not stated here;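 also: potency is read from the fitted curve at half-maximal effect; % of control where 0% means no effect; nearly all actives have a fitted effect of over 65% in size; a mitochondrial uncoupler was the plate control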
#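 Measures PINK1 amount and localization on or inside mitochondria by immunofluorescence. Stable cells get compounds at 5 concentrations for 24 hours before fixation and staining; CCCP controls included.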
# Sfp inh – blocks B. subtilis Sfp PPTase activity | Potency, µM, for inactives: max response, negative = inhibition, hits mostly inhibitors | 310,000 tested, 3.5% active | Q9F4F7 | Biochemical Sfp PPTase activity, qHTS; active = well fitted inhibition curve with a large enough effect; inconclusive = small, poorly fitted or top-dose-only effect, or another doubt; inactive = no such curve, though single readings can be large or run the other way;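 also: the enzyme is Sfp with the accession as filed and its product quenches rhodamine fluorescence; potency is read from the fitted curve at half-maximal effect; 0% = enzyme reaction without inhibitor and -100% = no enzyme wells; top concentration of the series not given in the record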
#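 Sfp 15 nM + cpd, 15 min RT; start w/ rhodamine-CoA 5 uM, BHQ-2-YbbR 12.5 uM (final); 50 mM Hepes pH 7.6, 10 mM MgCl2, 0.01% NP-40, 0.01% BSA; read 525/598 nm at 0 and 30 min.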
# gsp antag – antagonizes gsp, the McCune-Albright syndrome mutation | gsp-mutant cells, cAMP HTRF, 30 min; control for the full effect not named in the record | Potency, µM (titrated, usually from 76.9 µM), inactives show top-dose activity change, negative = inhibition, usual class: inhibitors | 340,000 tested, 0.4% active | AID 624288; active = falling curve of any shape with a large fitted effect; inconclusive = falling curve, mostly with a smaller effect; inactive = flat or rising curve; cell line not stated here;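 also: intracellular cAMP measured with PDE inhibitor Ro 20-1724 present during compound exposure; potency is read from the fitted curve at half-maximal effect; % is scaled to controls: 0 for no effect and ±100 for the full control effect; nearly all actives have a fitted effect of over 65% in size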
#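 G418-selected cells were plated in DMEM/10% FBS for 16-24 h at 37C, then treated with compounds plus the PDE inhibitor […] (300 uM solution added) for 30 min at 37C. Intracellular cAMP was measured by HTRF after 30 min lysis at room temperature.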
# ClpP mod – qHTS Assay for Activators of ClpP; Potency, µM (highest dose often 57.5 µM), for inactives: at the top dose activity change, negative = active; purified B. subtilis ClpP, FRET peptide cleavage, 20 min; 340,000 tested, 1.9% active; ATP-dependent Clp protease proteolytic subunit (Bacillus subtilis (strain 168)), P80244; active = well fitted falling curve with a large enough effect; inconclusive = small, poorly fitted or top-dose-only effect; inactive = no such curve, though single readings can be large or run the other way; also: potency is read from the fitted curve at half-maximal effect; the source files actives as falling curves though it sought activators and does not explain the sign; nearly all actives have a fitted effect of over 65% in size; many hits overshoot -100%
# Target sequence (P80244 whole entry, looked up): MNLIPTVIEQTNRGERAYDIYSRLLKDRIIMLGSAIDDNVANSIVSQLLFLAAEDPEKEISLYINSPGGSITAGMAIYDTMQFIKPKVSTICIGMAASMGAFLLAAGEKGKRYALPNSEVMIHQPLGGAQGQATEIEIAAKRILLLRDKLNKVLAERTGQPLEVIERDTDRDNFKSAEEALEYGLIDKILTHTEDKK
#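 FRET quenching reversal measured ClpP activation: 10 microg/mL B. subtilis ClpP at pH 8 with the FRET-FV decapeptide, read at 430 nm after 320 nm excitation. The 20-min minus 0-min signal was scaled between DMSO/no-enzyme wells and ADEP (5.8 microM final).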
# D2 ag – human D2 receptor agonism in beta-arrestin assay. P14416. activation, % (no concentration beside the values). 360,000 tested, 0.084% active. AID 624465. DiscoveRx PathHunter D2 beta-arrestin, luminescence, 90 min; 100% = 57 uM dopamine signal; in the data active = activation above about 40%; inconclusive = about 15% to 40%; inactive = below about 15%; also: compound concentration not given in the record; the text of the record calls up to 30% inactive
# Target sequence (P14416 whole entry, looked up): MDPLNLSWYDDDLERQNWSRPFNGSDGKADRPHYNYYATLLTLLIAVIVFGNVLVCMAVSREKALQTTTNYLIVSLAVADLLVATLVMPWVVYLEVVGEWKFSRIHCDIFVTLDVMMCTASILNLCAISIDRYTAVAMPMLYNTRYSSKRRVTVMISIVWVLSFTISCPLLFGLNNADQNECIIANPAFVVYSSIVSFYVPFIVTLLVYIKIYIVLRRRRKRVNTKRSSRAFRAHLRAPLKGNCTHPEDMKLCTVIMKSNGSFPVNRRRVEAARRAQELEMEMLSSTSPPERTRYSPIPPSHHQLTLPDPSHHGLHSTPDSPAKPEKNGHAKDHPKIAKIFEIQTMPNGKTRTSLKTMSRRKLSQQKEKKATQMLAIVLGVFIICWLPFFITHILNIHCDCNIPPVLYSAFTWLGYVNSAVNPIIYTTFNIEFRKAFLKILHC
#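 Agonist mode: compounds alone added to overnight-plated D2 PathHunter cells for 90 min at 37 C, with 57 uM final dopamine (EC100) defining full response. Beta-arrestin recruitment detected by chemiluminescent reagent, read after 1 h at ambient temperature.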
# gsp ag – activates gsp, the McCune-Albright syndrome mutation; gsp mutant cells, cAMP HTRF, 30 min; control for the full effect not named in the record; 340,000 tested, 0.13% active; Potency, µM (highest dose often 76.9 µM), without a hit: top-dose activation (cAMP increase), usual class: activators; active = well fitted activation curve with a large enough effect; inconclusive = small, poorly fitted or top-dose-only effect, or another doubt; inactive = no such curve, though single readings can be large or run the other way; cell line not stated here;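 also: phosphodiesterase inhibitor Ro 20-1724 added with compounds to block cAMP breakdown; potency is read from the fitted curve at half-maximal effect; nearly all actives have a fitted effect of over 60% in size; about a fifth of the inactives were tested at one dose only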
#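 Cells in DMEM/10% FBS with G418 were pretreated with compounds in DMSO plus […] (300 uM stock) for 30 min at 37C. cAMP was measured by HTRF (cAMP-d2 plus anti-cAMP antibody-K) after 30 min at room temperature.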
# An asterisk follows results filed as active; ? = inconclusive; . = not tested or not shown; & = joins results of further samples; [ ] = remark or other dose.
SMILES,Menin MLL FP FL,PINK1 expr mod,Sfp inh,gsp antag,ClpP mod,D2 ag,gsp ag
COc1ccccc1Cn1cccc1C=O,-1.2,-0.7%,5.2%,.,.,-2.7,-13.0%[15.4 µM]
COc1ccc(NS(=O)(=O)c2ccc(NC(=S)NCC3CCCO3)cc2)cc1 (stereo not drawn),.,3.2%,-25.9%,2.2%,1.6%,-0.3,?
C=CCNC(=O)NC(=O)COC(=O)C(C)Oc1ccc(Cl)cc1Cl (stereo not drawn),-2.3,1.8%,17.5%,.,.,-1.1,-2.2%[15.4 µM]
COCCCn1c(SCC(=O)Nc2ccc(C(=O)OC)cc2)nc2ccccc2c1=O,2.1,3.1%,4.8%,3.1%,0.2%,0.0,-29.7%
COC(=O)c1c(NC(=O)C2CCC2)sc(C(=O)N(C)C)c1C,5.6,3.0%[38.3 µM],18.3%,4.6%,-2.6%,-1.6,?
O=C(NC1=NCCS1)C1CCN(S(=O)(=O)c2ccc(Cl)cc2)CC1,.,5.1%,.,9.2%,0.9%,-2.7,6.1%
CCc1noc(C)c1C(=O)OC(C)C(=O)Nc1ccc2c(c1)OCO2 (stereo not drawn),.,3.6%,.,2.0%,-7.1%,0.3,-6.2%
CCN(C[C@H]1N[C@@](CC)(C(=O)OC)[C@H]2C(=O)N(Cc3ccccc3)C(=O)[C@@H]12)C(=O)COC,.,2.2%,.,5.6%,-0.1%,1.7,.
Cc1nn(-c2ccccc2)c(C)c1NS(=O)(=O)c1ccccc1,1.5,-1.3%[38.3 µM],6.9%,-14.6%,-2.2%,-0.8,-4.2%
Cc1cccc(NC(=O)COC(=O)c2ccc3c(c2)OCO3)c1C,5.4,6.2%,9.4%,12.6%,-4.2%,-3.3,-26.5%
COc1ccccc1-n1c(-c2cccnc2)n[nH]c1=S,5.7,3.4%[38.3 µM],50.1µM*,-6.9%,-0.7%,-0.4,3.1%
CCN1CCc2c(sc(NC(=O)c3ccc(C(=O)c4ccccc4)cc3)c2C(N)=O)C1,7.7,-0.7%,-21.2%,-24.7%,-0.2%,-3.4,?
Cc1cccc(S(=O)(=O)N/N=c2\sc3ccccc3n2C)c1,3.8,0.1%,14.8%,0.2%,.,2.5,-1.3%
O=C(NN=Cc1cc(=O)[nH]c(=O)[nH]1)c1ccncc1,.,5.4%,.,4.4%,-7.3%,-2.0,-11.8%
COc1cc(O)c(C(C)=O)c(OC)c1,-4.4,5.1%&3.0%,-10.6%,0.2%,1.2%,-5.8,.
CC(=O)c1ccc(OCCCC(=O)Nc2ccc(Cl)c(S(=O)(=O)N3CCOCC3)c2)cc1,.,1.8%,.,-25.3%,-0.5%,-1.1,-9.5%
O=C(CCSCc1ccccc1F)NCCc1ccccc1,-2.9,1.4%,9.2%,-20.1%,.,12.3,1.2%
CC(=O)c1ccc(OC2(C)CCN(CCOc3ccc(C)cc3)C2)cc1 (stereo not drawn),.,-0.2%,.,.,-6.5%,10.3,.
Fc1ccccc1-c1cc2ccccc2cn1,.,4.8%,.,4.6%,-9.7%,1.2,.
Cc1ccc(Cl)c2c1=NC(=O)C=2c1[nH]c(=S)[nH]c1O,1.9,-0.7%,39.8µM*,17.4%,.,-2.8,?
CCOc1ccc(C(=O)NC2CCN(S(=O)(=O)CC)CC2)cc1,0.8,-0.3%,5.9%,8.7%,-3.1%,-4.0,19.9%
Cc1ccc(NC(=O)CSCC(=O)Nc2ccc(S(=O)(=O)N3CCOCC3)cc2)cc1,.,0.4%,10.2%,5.5%,0.6%,-1.1,-5.0%[15.4 µM]
Nc1nnnn1/N=C/c1ccccc1Cl,.,-1.4%,.,.,1.3%,-1.1,26.1%
N#Cc1c(N)n(CCOC(=O)c2cccc([N+](=O)[O-])c2)c2nc3ccccc3nc12,2.7,-0.3%,-8.3%,?,25.8%,1.5,15.8%
COCC(C)NS(=O)(=O)c1ccccc1 (stereo not drawn),-0.3,-0.5%,3.7%,3.3%,.,2.0,-35.6%[inhibitor]
CCC1CCCCN1CCCNC(=O)C1CCC(CNS(=O)(=O)c2c(C)cc(C)cc2C)CC1 (stereo not drawn),.,0.1%,-0.1%,12.0%,-2.8%,-3.7,19.0%
CCOc1ccc(OCc2nnc(SCC(=O)NC3CCS(=O)(=O)C3)n2-c2ccc(Cl)cc2)cc1 (stereo not drawn),2.8,0.7%,8.9%,-18.0%,-0.4%,-3.1,?
Cc1cc([N+](=O)[O-])ccc1NCc1ccc2c(c1)OCCO2,-3.0,-1.3%,-5.2%,-6.7%,-4.3%,1.2,15.4%[15.4 µM]
O=c1cc(S(=O)(=O)Cc2ccccc2)[nH]c(=O)[nH]1,.,2.1%,.,6.2%,.,-2.9,-25.2%
Cc1cc(C)c(S(=O)(=O)N2CCCC(C(=O)NCc3ccccn3)C2)c(C)c1 (stereo not drawn),0.3,-0.9%,4.0%,-8.4%,.,-1.3,-1.0%
Cn1c(CCC(N)=O)nnc1SCC(=O)Nc1ccccc1C(=O)NC1CC1,.,1.7%,.,-0.3%,-4.5%,4.1,-3.1%
Cc1ccc(-c2nnc(Nc3ccc(C(=O)N(C)C)cc3)c3ccccc23)cc1S(N)(=O)=O,-1.6,0.9%,9.4%,-6.0%,-3.4%,4.0,18.7%
COCCCn1c(=O)c2sccc2n2c(CCCC(=O)N3CCN(c4ccccn4)CC3)nnc12,.,0.7%,26.9%,3.7%,-12.9%,6.1,?
CCN(CC(=O)NCc1cccs1)C(=O)C1CC(=O)N(c2ccc(OC)cc2OC)C1 (stereo not drawn),.,1.7%,.,3.4%,1.1%,-3.3,-75.1%[inhibitor]
Cc1cc(C)c(NC(=O)CSc2nc3[nH]ncc3c(=O)[nH]2)c(C)c1,-7.7,5.1%,15.7%,-0.1%,.,-16.6,10.1%[15.4 µM]
O=[N+]([O-])c1ccc(-c2c(-c3ccccc3)ncc3cc(F)ccc23)cc1,.,0.2%,.,?,-1.9%,-2.5,-15.2%
Cc1ccc(OCCNS(=O)(=O)c2cccs2)cc1,-0.6,-2.3%,-12.3%,3.6%,-1.4%,-2.0,-31.3%[inhibitor]
O=C1/C(=C/c2ccc(O)c(O)c2)SC(=S)N1Nc1ccccc1,?,?,-7.7%,-17.0%,.,-7.4,26.3%
COC(=O)N/N=C/c1cc(Cl)cc(Cl)c1OCc1ccccc1,.,?,28.6%,1.3%,3.5%,-3.6,-23.4%
COc1ccc(C(=O)Nc2cccc(C)c2)cc1S(=O)(=O)N1CCOCC1,-2.9,.,5.1%,-7.5%,-0.4%,1.6,-45.0%[inhibitor]
CN(C)CCn1c(=S)[nH]c2ccc(Cl)cc2c1=O,-3.8,1.1%,-11.3%,7.7%,-5.4%,-3.8,-14.8%
C[C@H]1CN([C@@H](C)CO)C(=O)CCCn2cc(nn2)CO[C@@H]1CN(C)S(=O)(=O)c1ccc2c(c1)OCCCO2,.,0.4%,.,.,-2.3%,-8.8,?
COc1ccc(CC(=O)Nc2ccc(-c3nnc(-c4ccc(C)cc4)o3)cc2)cc1,0.8,8.3%,10.0%,9.1%,?,-1.8,-2.8%
COc1ccc(C=NNC(=O)c2cc(C)oc2C)cc1O,.,9.5%,.,-7.4%,-13.0%,-2.1,-27.3%
c1ccc(Cn2nnnc2CN2CCCC2)cc1,-0.9,.,16.0%,0.3%,0.3%,-1.3,?
O=C(Nc1ccccc1)c1ccc(Cn2cc(C(F)(F)F)ccc2=O)cc1,0.1,-4.4%[38.3 µM],15.0%,-1.0%,-0.9%,-4.0,-15.5%
Cc1ccc(NC2=NCC(=O)N2Cc2ccccc2)c(C)c1,0.6,3.0%,8.3%,-3.4%,1.3%,1.2,-5.5%
COc1cc(C2N(Cc3ccccc3)CCN2Cc2ccccc2)ccc1OC(C)=O,-3.1,1.5%,6.2%,1.5%,-0.4%,-3.6,-16.9%
CC1=C(C(=O)N2CCOCC2)CC(CC(=O)NCc2cccc3ccccc23)C(=O)N1CCC1=CCCCC1 (stereo not drawn),.,1.6%,.,.,-0.6%,-11.9,19.8%
O=C(COC(=O)CN1C(=O)c2ccccc2C1=O)Nc1ncc(Cl)cc1Cl,7.1,0.0%,-0.5%,-17.7%[15.4 µM],-3.1%,-4.4,-13.2%
# Later entries:
SMILES,Menin MLL FP FL,PINK1 expr mod,Sfp inh,gsp antag,ClpP mod,D2 ag,gsp ag
CC(C)(C)c1ccc(S(=O)(=O)NCC(=O)Nc2sc3c(c2C(N)=O)CCCC3)cc1,3.5,5.9%,-7.4%,-6.7%,-2.0%,-0.3,-46.8%[inhibitor]
COC(=O)NNC(=O)c1ccc(C)cc1,-0.8,-2.0%[38.3 µM],3.9%,3.4%,0.7%,0.4,-20.1%
COc1ccccc1N1CCN(C2CCCN(C(=O)CCc3cnccn3)C2)CC1 (stereo not drawn),.,-1.6%,7.5%,28.4%,0.7%,-2.2,?
COc1ccc(Nc2ncnc3scc(-c4ccc(OC)cc4)c23)cc1,2.6,0.9%,?,3.9%,-28.8%,-1.0,-35.5%[inhibitor]
COc1cc(C2Nc3ccc4ncccc4c3C3=C2C(=O)CC(C)(C)C3)cc(OC)c1O (stereo not drawn),1.0,14.8%[38.3 µM],4.8%,-3.4%,-2.3%,1.5,?
CC(C)(C)NC(=O)C(c1ccco1)N(C(=O)c1csnn1)c1ccccc1 (stereo not drawn),3.8,0.9%[38.3 µM],2.8%,6.0%,1.4%,-2.2,-51.5%[inhibitor]
CSc1nc(N)c2c(n1)OC(N)=C(C#N)C2c1cccnc1 (stereo not drawn),-0.7,0.6%,9.7%,4.5%,-3.6%,-1.4,10.1%
C=CCN1C(=O)c2ccc(C(=O)OCC(=O)N(CC)C3CCS(=O)(=O)C3)cc2C1=O (stereo not drawn),.,1.4%,.,-4.1%,-0.5%,?,15.9%
COc1ccccc1NC(=O)C1CCN(S(=O)(=O)c2cccs2)CC1,.,3.6%,.,7.8%,0.4%,-4.9,-11.6%
CC(C)OC(=O)C(=O)NNc1ccccc1,4.5,3.5%,-23.3%,7.7%,.,-3.7,3.0%
COc1ccc(C=Nc2cccc3ncccc23)cc1,-0.2,-0.4%,-8.4%,-18.7%,0.1%,5.0,-0.4%
C=CCN1C(=O)C(O)(CC(=O)c2ccccc2)c2ccccc21 (stereo not drawn),2.1,11.8%,12.0%,3.0%,1.2%,2.5,-23.9%
